Bioassay records: PubChem, several laboratories
Mtb H37Rv = M. tuberculosis H37Rv growth inhibitors, H37Rv strain (AID 1626); M. tuberculosis H37Rv growth inhibition; higher % means a stronger effect; inhibition, % at 10 µM; hits with a dose series show IC50 in µM; 220,000 tested, 0.95% active;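 active means confirmed in a dose series; inconclusive means inhibition above 80% but not taken into the dose series; inactive means below 80% or under 30% at every dose of the series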;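 further: bacteria incubated seven days before Alamar blue readout; 0% = bacteria only wells and 100% = bacteria with antibiotic wells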
Mtb betalactam = beta-lactam sensitization of Mtb H37Rv. 330,000 tested, 0.27% active. M. tuberculosis H37Rv growth with meropenem, percent inhibition; hits of this screen are not shown here. inhibition, % at 25 µM. AID 434955;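 active means about 74% or more and at least 40 points above the plate without the antibiotic, then above 30% in a dose series; inconclusive means first-round hits that could not be retested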;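 further: growth measured after seven days incubation then overnight dye step; 0% = bacteria only wells and 100% = bacteria with antibiotic; twin plates without the antibiotic show which effects depend on it; some results filed as inactive read as strong as hits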
YopH PTP inh = YopH (Yersinia) phosphatase inhibition. fluorescence Ex485/Em525. inhibition, %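 (about 10 µM by stock and volumes)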. AID 898. 140,000 tested, 0.16% active;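 active means inhibition of 50% or more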;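 further: controls were vehicle for no effect and minimum signal wells for full effect; inactives centre near -20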
Arbovirus inh = antivirals against arbovirus infection; inhibition, % at 10 µM; arbovirus infection cell-based antiviral screen; 200,000 tested, 0.37% active; AID 1251;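 active means inhibition from about 30%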;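 further: bluetongue infection of BSR cells; cell survival read as ATP light after 72 h; 0% = infected wells without compound and 100% = uninfected wells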
RecA splice inh = inhibitors of M. tuberculosis RecA intein splicing; 290,000 tested, 0.75% active; cell-free RecA intein splicing, fluorescence; P9WHJ3; inhibition, %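 (about 9 µM by stock and volumes)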; AID 2221; in the data active means inhibition above about 30%; inconclusive means no clear call, values can overlap the other calls;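 further: 0% = vehicle wells and 100% = reference inhibitor control wells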
Target sequence (P9WHJ3 whole entry, looked up, canonical isoform): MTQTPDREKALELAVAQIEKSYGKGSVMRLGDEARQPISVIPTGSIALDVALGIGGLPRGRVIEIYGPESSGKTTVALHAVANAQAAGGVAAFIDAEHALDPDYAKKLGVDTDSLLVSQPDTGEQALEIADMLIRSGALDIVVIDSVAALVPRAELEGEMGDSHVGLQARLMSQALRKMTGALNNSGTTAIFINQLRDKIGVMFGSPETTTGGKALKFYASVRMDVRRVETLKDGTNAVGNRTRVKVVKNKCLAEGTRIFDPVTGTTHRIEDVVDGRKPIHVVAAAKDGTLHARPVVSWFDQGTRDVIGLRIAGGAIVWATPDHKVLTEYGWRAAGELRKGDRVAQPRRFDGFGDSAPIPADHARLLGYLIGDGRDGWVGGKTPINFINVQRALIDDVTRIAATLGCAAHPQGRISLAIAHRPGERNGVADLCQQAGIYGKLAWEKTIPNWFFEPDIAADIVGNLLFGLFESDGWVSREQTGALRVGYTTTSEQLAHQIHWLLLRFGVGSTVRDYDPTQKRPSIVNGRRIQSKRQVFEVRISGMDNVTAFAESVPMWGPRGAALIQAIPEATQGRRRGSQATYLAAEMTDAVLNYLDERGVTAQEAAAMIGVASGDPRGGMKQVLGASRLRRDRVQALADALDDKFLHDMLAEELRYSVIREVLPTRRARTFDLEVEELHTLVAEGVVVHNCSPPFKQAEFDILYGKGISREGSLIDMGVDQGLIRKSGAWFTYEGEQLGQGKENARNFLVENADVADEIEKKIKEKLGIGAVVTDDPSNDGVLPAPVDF
Arbovirus inh repeat = further read-out of Arbovirus inh, marked with its call; inhibition, %; measured here: 10K subset replicate screen; many hits read low in the repeat;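 first of two repeat runs on a subset; 0% = infected and 100% = uninfected wells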
Starred values were filed as active, the others as inactive; ? = inconclusive; . = no result given. A portion of the library. The share of hits here may be higher or lower than overall.

SMILES | Mtb H37Rv | Mtb betalactam | YopH PTP inh | Arbovirus inh | RecA splice inh | others
CCCCn1c(-c2nn(C)c(C)c2Cl)n[nH]c1=S | -6% | -1 | -123 | 13 | -1.7
O=C1NC(=O)/C(=C/c2ccccc2Cl)N1 | . | 2 | . | . | 1.9
CC1CCCCC1NC(=O)C1CCC(CNS(=O)(=O)c2cccc3cccnc23)CC1 (centres undefined) | . | 1 | . | . | 1.2
Cc1nn(-c2ccccc2)c(C)c1NC(=O)COC(=O)c1cc(Cl)ccc1O | . | -7 | . | . | 0.5
Cc1csc2c(=O)n(CCO)c(=O)[nH]c12 | -2% | -4 | . | . | -2.8
O=C(c1cccc(N2CCCC2=O)c1)N1CCN(c2cccc(Cl)c2)CC1 | . | -7 | . | . | 2.7
CCC(OC(=O)CN1C(=O)c2ccccc2C1=O)C(=O)NC1CCCC1 (centres undefined) | . | 7 | . | . | -1.8
COc1ccc2c(c1)c(N=O)c(O)n2C | -3% | -1 | -17 | 3 | .
O=C1CCCN1CCCNS(=O)(=O)c1ccccc1 | . | 3 | . | . | 0.5
COCCN(C(=O)c1snc(C(N)=O)c1N)C(C(=O)NC1CCCCC1)c1ccc(F)cc1 (centres undefined) | . | -2 | . | . | -5.3
CCCCCc1c(C)[nH]c2nc3ccccc3n2c1=O | . | 1 | . | . | 0.6
CC(C)(C)NC(=O)NC12CC3CC(CC(C3)C1)C2 | 2% | -1 | . | 16 | -2.5
COc1cc2[nH]c(C(=O)N3CCC4(CC3)OCCO4)cc2c(OC)c1OC | . | 1 | . | . | 1.6
CC1(C)Cc2c(sc3ncn4nc(-c5ccco5)nc4c23)CO1 | . | -3 | -24 | . | 0.1
O=C(NCCS(=O)(=O)N1CCN(c2ccccc2F)CC1)c1ccc(Br)cc1 | . | 0 | . | . | -1.9
CN1CCN(C(=O)c2cnn(-c3ccccc3)c2NC(=O)c2ccc(Br)cc2)CC1 | . | -4 | . | . | -0.5
O=C(Cn1c(C(=O)O)cc2ccccc21)c1ccccc1 | . | -3 | . | . | -1.3
OCCN1CCN(c2nc(-c3ccccc3)nc3c2oc2ccccc23)CC1 | 4.9µM* | 100 | -6 | -28 | 1.9
O=C(CCC(=O)Nc1ccc(Br)cc1)N/N=C/c1cc([N+](=O)[O-])ccc1O | -4% | 31 | . | -11 | 0.4
COCCCN(C(=O)c1cc2c(s1)CCCCC2)c1c(N)n(Cc2ccccc2)c(=O)[nH]c1=O | . | 0 | . | . | -2.3
CC(c1ccco1)N(C(=O)c1ccc(S(=O)(=O)N2CCCCC2)cc1)c1ccccn1 (centres undefined) | 1% | -10 | -26 | 8 | 1.0 | Arbovirus inh repeat=3
CNC(=O)c1sc(SC)cc1-c1ccc(Cl)cc1 | -10% | -6 | -18 | -5 | 1.7
CN(CC(=O)NNC(=O)c1cccnc1)S(=O)(=O)c1cc(Cl)ccc1Cl | 0% | 3 | . | 7 | 5.9
Cc1ccc(C2(C(F)(F)F)NC(=O)N3CCCN=C3S2)cc1 (centres undefined) | -4% | -7 | -20 | 5 | -0.4
CCC1CCCN1Cn1cnc2c([nH]c3ccccc32)c1=O (centres undefined) | . | -9 | -35 | 8 | -1.9
COc1ccc2c(c1)c(C(C)=O)c(C)n2-c1ccccc1 | -1% | . | -11 | 3 | -1.1
O=C(CN1CCN(Cc2ccccc2Cl)CC1)N/N=C/c1ccccn1 | -4% | -6 | . | . | -0.4
O=C1C2C3CCC(CC3)C2C(=O)N1c1ccccc1 (centres undefined) | . | 0 | . | . | -0.5
CCOc1ccc(NC(=O)c2ccco2)cc1 | 52% | 13 | -2 | 2 | -0.7
C[C@@H](C(=O)NCCCCCC(=O)O)n1nnc2ccccc2c1=O | -13% | -4 | . | . | -1.2
CN1CCN(c2nc(-c3cccs3)cc(C(F)(F)F)n2)CC1 | -13% | 8 | 4 | 3 | -4.2
CC(=O)NC1=NC(=O)/C(=C/c2cc(C)n(-c3cccc(C(=O)O)c3)c2C)S1 | -4% | . | . | 4 | -2.5
COC(=O)c1ccccc1NC(=O)CSc1nc(-c2ccco2)cc(C(F)(F)F)n1 | 8% | 3 | -29 | 3 | .
CC(C)NC(=O)NC(=O)COC(=O)c1c2c(nc3ccccc13)CCC2 | . | 3 | . | . | -2.6
Cc1nc2scc(-c3cccs3)c2c(=O)n1N | -1% | 5 | 2 | 0 | -4.3
COc1ccc(/C=C(/NC(=O)c2ccco2)C(=O)NCc2ccco2)cc1OC | . | 3 | . | . | -3.3
COc1cccc(C2Nc3c(F)cc(Br)cc3C3C=CCC32)c1OC (centres undefined) | 1% | ? | -32 | 1 | 0.0
O=C(NCc1ccc2c(c1)OCO2)C1CC(=O)N(CCc2ccc(F)cc2)C1 (centres undefined) | . | 5 | . | . | -1.7
C[C@@H]1CN(Cc2nc(-c3cnccn3)no2)C[C@H](C)O1 | -8% | 7 | . | 3 | 0.5
Cc1csc(=O)n1CC(=O)OCC(=O)NCc1ccc(Cl)cc1Cl | . | -3 | . | . | -2.5
NS(=O)(=O)c1cccc(NC(=O)COC(=O)Cc2ccc(S(=O)(=O)N3CCCCC3)s2)c1 | 2% | 4 | . | 0 | .
CC(C)Cn1c(=O)c2sccc2n2c(CCCC(=O)N3CCC(N4CCCCC4)CC3)nnc12 | . | 0 | . | . | -1.0
COc1ccc(C(=O)Nc2ccc(NC(=O)C3CC3)nc2)cc1 | . | 8 | . | . | -0.9
CCOC(=O)Cn1c(=O)c2c(nc(N3CCCCC3)n2C)n(C)c1=O | 1% | -17 | -3 | 4 | -3.5
CNC(=O)C(Sc1ccccc1)c1ccccc1 (centres undefined) | -7% | 2 | -22 | -2 | 0.3
CCCn1nnc2c(=O)oc3ccccc3c21 | 7% | 50 | -15 | 8 | 1.0
CCc1nnc(NC(=O)C2CCN(c3cnccn3)CC2)s1 | 0% | -4 | -26 | 5 | 0.9
Cc1ccc2c(c1)-c1c(ssc1=S)C(C)(C)N2C(=O)CN1C(=O)c2ccccc2C1=O | -3% | -4 | -41 | 10 | 6.0
CCC(C)NC(=O)C1c2ccccc2C(=O)N(c2ccc(OC)cc2)C1c1ccc(OC)cc1 (centres undefined) | 0% | -4 | -17 | -16 | 1.4
COc1ccc(N2C(=O)C3CCCN3C2c2cccc(F)c2)cc1Cl (centres undefined) | 1% | -7 | -27 | 1 | -0.5
Cc1cc(=O)oc2cc(OCC(=O)N3C[C@H]4C[C@@H](C3)c3cccc(=O)n3C4)c(Cl)cc12 | . | 1 | . | . | -3.6
CCOC(=O)c1cnn(-c2ncnc3sc(CC)cc23)c1N | 5% | 25 | 2 | -5 | -2.7
O=C(NCCc1ccccc1)c1ccc(CS(=O)(=O)c2ccc(Br)cc2)o1 | . | 1 | . | . | -3.5
CC(=O)Nc1ccc(S(=O)(=O)Nc2nc3ccccc3nc2N2CCCCCC2)cc1 | -4% | 3 | -28 | 2 | 3.3
CC(=O)/C(=C/N(C)C)Sc1ccc(C)cc1 | -4% | 0 | -22 | 5 | -5.0
CSc1nc(C2CC2)cc(-c2cccs2)c1C#N | 4% | -2 | -26 | -4 | 0.5
CCOC(=O)COc1ccc(/C=C2\NC(=S)N(CC)C2=O)cc1 | ? | 99 | -6 | 0 | -0.9
CC(C)N1C(=O)CC(Nc2cccc3cccc(N)c23)C1=O (centres undefined) | -8% | . | . | 4 | .
CCOc1ccc(/C=N/n2cnnc2)cc1 | 4% | 5 | -5 | 8 | -3.5
O=C(CSc1nnc(NC(=O)CN2CCOCC2)s1)Nc1ccccc1 | -1% | -8 | -28 | 7 | 0.0

Further results.
SMILES | Mtb H37Rv | Mtb betalactam | YopH PTP inh | Arbovirus inh | RecA splice inh | others
Cc1cc(C)c(NC(=O)Cn2nnc(C(=O)NCc3ccco3)c2N)c(C)c1 | 4% | -5 | . | -1 | -4.3
OC(C#CCN1CCCCC1)(c1ccccc1)c1ccccc1 | . | -13 | . | . | 1.2
S=c1[nH]nc(COc2ccccc2)n1/N=C/c1ccccc1Cl | . | 15 | . | . | 3.2
O=C(N/N=C/C=C/c1ccccc1)c1cc(C2CC2)[nH]n1 | . | -4 | . | . | -1.0
Clc1ncc(CN2CCN(Cc3ccccc3)CC2)s1 | -16% | -7 | -35 | 5 | -0.9
CN(c1ccc(OCC(=O)OCC(=O)Nc2ccc(Br)cc2)cc1)S(=O)(=O)c1cccs1 | 8% | -1 | -15 | 8 | 2.9
O=C(c1ccc(Cl)cc1)c1cnc(-c2ccc(Cl)cc2)s1 | -3% | 4 | -30 | -1 | -2.7
Cc1cccc(C)c1NC(=O)C1CC(=O)N(C(C)C)C1 (centres undefined) | -1% | -5 | -50 | -3 | -0.5
CCCNC(=O)Cc1cc(=O)[nH]c(=O)[nH]1 | 0% | 1 | -4 | 2 | -0.7 | Arbovirus inh repeat=27
O=C(CSc1ccc(-c2cccc([N+](=O)[O-])c2)nn1)N1CCCC1 | 0% | -7 | . | -5 | -0.1
CC(C(=O)NCC1CCCCC1)N1CCN(S(=O)(=O)/C=C/c2ccccc2)CC1 (centres undefined) | 5% | -1 | -6 | -12 | 2.0
O=C(NC(=S)Nc1ccccc1N1CCCC1)c1cccc(F)c1 | 60% | 3 | . | 9 | 6.1
CC1(C)Cc2ccccc2C(CSc2ccccc2C(=O)O)=N1 | -3% | 5 | . | -7 | -1.8
COc1ccc2sc(N(CCCN(C)C)C(=O)c3ccc(S(=O)(=O)N(C)C4CCCCC4)cc3)nc2c1 | . | -7 | . | . | 2.3
CSCC[C@H](Nc1ncnc2sc(C)c(C)c12)C(=O)O | -9% | -12 | -21 | 1 | -3.3
CC1(C(=O)O)CCC(C(=O)Nc2ccc3ccccc3c2)C1(C)C (centres undefined) | -17% | 0 | 6 | 4 | 1.4
CCn1cc(C(=O)OCC(=O)c2cc(C)n(-c3cccc(C(F)(F)F)c3)c2C)c(=O)c2ccc(C)nc21 | -7% | 14 | -17 | -5 | 19
CCOC(=O)C1CCCN(C(=O)c2ccc(OC)c([N+](=O)[O-])c2)C1 (centres undefined) | 7% | -6 | -26 | 4 | -8.8
C/C(=N\Nc1ccc([N+](=O)[O-])cc1)c1ccc(N2CCOCC2)cc1 | -8% | 0 | . | . | -2.4
Fc1ccccc1-c1nnc2ccc3ccccc3n12 | . | 6 | . | . | -0.7

Of the compounds above, 4 have a nitro group on carbon.
SMILES | Mtb H37Rv | Mtb betalactam | YopH PTP inh | Arbovirus inh | RecA splice inh | others
O=C(CCC(=O)Nc1ccc(Br)cc1)N/N=C/c1cc([N+](=O)[O-])ccc1O | -4% | 31 | . | -11 | 0.4
O=C(CSc1ccc(-c2cccc([N+](=O)[O-])c2)nn1)N1CCCC1 | 0% | -7 | . | -5 | -0.1
CCOC(=O)C1CCCN(C(=O)c2ccc(OC)c([N+](=O)[O-])c2)C1 (centres undefined) | 7% | -6 | -26 | 4 | -8.8
C/C(=N\Nc1ccc([N+](=O)[O-])cc1)c1ccc(N2CCOCC2)cc1 | -8% | 0 | . | . | -2.4

Returning to the listing, starting three compounds before the break.
SMILES | Mtb H37Rv | Mtb betalactam | YopH PTP inh | Arbovirus inh | RecA splice inh | others
CCOC(=O)C1CCCN(C(=O)c2ccc(OC)c([N+](=O)[O-])c2)C1 (centres undefined) | 7% | -6 | -26 | 4 | -8.8
C/C(=N\Nc1ccc([N+](=O)[O-])cc1)c1ccc(N2CCOCC2)cc1 | -8% | 0 | . | . | -2.4
Fc1ccccc1-c1nnc2ccc3ccccc3n12 | . | 6 | . | . | -0.7
COc1ccc(/C=C/C(=O)OCn2c(SC)nnc(C)c2=O)cc1OC | 3% | -1 | . | -1 | -4.0
CCN(CC)Cc1nc2sc(C)c(C)c2c(=O)[nH]1 | 2% | 16 | . | 10 | 1.4
CCOC(=O)C1CCN(C2=C(NS(=O)(=O)c3ccc(Cl)cc3)C(=O)c3ccccc3C2=O)CC1 | 1% | 3 | . | . | 14
NC(=O)c1cnn2c1NC(c1ccc(F)cc1)CC2C(F)(F)F (centres undefined) | 3% | ? | -40 | 4 | 1.0
C#CCNC(=O)C1=C[C@@H](c2coc3ccccc3c2=O)C[C@@H](OCCCCO)O1 | -4% | 3 | . | 1 | 0.2
Cc1nc(Cl)c(Cl)n1CCOc1ccccc1 | -7% | 0 | . | . | 2.2
COc1cccc(CNC(=O)CCS(=O)(=O)c2ccc3c(c2)NC(=O)C(C)S3)c1 (centres undefined) | . | 4 | . | . | -0.7
COC(=O)c1[nH]c2cccc(OC)c2c1NC(=O)CN1CCN(c2cccc(OC)c2)C(C)C1 (centres undefined) | 16% | 73 | -37 | -6 | 5.6
Brc1cccc(OCCN2CCOCC2)c1 | . | -4 | . | . | 1.1
O=C(Cn1cc(C(F)(F)F)ccc1=O)N/N=C/c1ccccc1O | -7% | 70 | . | . | -0.7
O=C(Cc1csc(N2CCOCC2)n1)N/N=C/c1cccc(O)c1 | 0% | 3 | -13 | 4 | -3.3
